AmpC inh no det = Promiscuous and Specific Inhibitors of AmpC Beta-Lactamase (assay without detergent) | AmpC nitrocefin hydrolysis, absorbance 480 nm, no detergent; potencies from a single point are estimates | 1.8% of 71,000 active | Potency, µM (titrated, usually from 28.7 µM), inactives show at the top dose activity change, negative = inhibition | P00811; active = falling curve, for most hits resting on a single point; inconclusive = weak or doubtful change; inactive = flat or rising curve; note: % of control where 0% means no effect; about half of the hits show no inhibition at the top dose; a quarter of the inactives give rising signals
Target sequence (P00811 whole entry, looked up): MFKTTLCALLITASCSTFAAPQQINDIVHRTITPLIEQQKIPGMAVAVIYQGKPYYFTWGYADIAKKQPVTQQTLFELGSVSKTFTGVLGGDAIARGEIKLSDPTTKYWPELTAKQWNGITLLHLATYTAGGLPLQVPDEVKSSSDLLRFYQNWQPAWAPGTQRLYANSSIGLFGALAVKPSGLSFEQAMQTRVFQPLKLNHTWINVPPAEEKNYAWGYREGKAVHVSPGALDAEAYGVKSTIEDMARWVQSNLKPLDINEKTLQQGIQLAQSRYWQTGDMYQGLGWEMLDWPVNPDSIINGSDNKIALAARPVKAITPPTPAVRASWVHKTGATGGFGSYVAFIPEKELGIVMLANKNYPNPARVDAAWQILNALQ
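AmpC, 20 mM phosphate pH 7.0; 15 min cpd preinc, RT; start with nitrocefin (800 uM stock); A480 kinetic read, 20 s intervals, 4 min. No-enzyme wells = negative control.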
Numbers without * were called inactive; ? = inconclusive; & = joins results of further samples; [ ] = another dose, or the depositor's remark. Potency is the fitted concentration of half-maximal effect.

Compound	AmpC inh no det
CCC(C)NC(=O)c1ccc(CS(=O)(=O)c2ccc(OC)cc2)o1 (stereo unspecified)	4µM*[single pt active]
COc1ccc(-c2nc3cnc(N(C)C)nc3n(C3CC3)c2=O)cc1	4%
COc1ccc(C2c3c(oc4ccccc4c3=O)C(=O)N2CCCN2CCOCC2)cc1 (stereo unspecified)	31%
CN(CCC#N)C(=O)c1ccc(CNS(=O)(=O)c2ccc(F)cc2)cc1	-20%
CCOc1ccccc1NC(=O)C1CCN(S(=O)(=O)c2ccc(OC)c(OC)c2)CC1	42%
O=C(c1cc2ccccc2c(=O)o1)N1CCc2ccccc2C1	9%
O=C(O)c1ccc2c(c1)C(=O)N(c1ccc(Cl)cn1)C2=O	-8%
COc1cc(C)nc(Oc2ccc(/C=N/O)cc2)n1	6%
CCSC1(SCC)N=C(N)C2(C#N)C(c3ccc(OC)c(OC)c3OC)C12C#N (stereo unspecified)	39%
NC[C@@H]1O[C@H](c2ccccc2)Cc2c1ccc(O)c2O	-9%
CN(C)C=NCCn1c(N2CCOCC2)nc2c1c(=O)n(C)c(=O)n2C	-12%
Cc1cccc(N2CCN(C(=O)COc3cc(=O)n(C)c4ccccc34)CC2)c1C	126%

Reformatted with each value named: four of the compounds above.
SMILES: CCSC1(SCC)N=C(N)C2(C#N)C(c3ccc(OC)c(OC)c3OC)C12C#N (stereo unspecified)
  AmpC inh no det = 39%
SMILES: NC[C@@H]1O[C@H](c2ccccc2)Cc2c1ccc(O)c2O
  AmpC inh no det = -9%
SMILES: CN(C)C=NCCn1c(N2CCOCC2)nc2c1c(=O)n(C)c(=O)n2C
  AmpC inh no det = -12%
SMILES: Cc1cccc(N2CCN(C(=O)COc3cc(=O)n(C)c4ccccc34)CC2)c1C
  AmpC inh no det = 126%

Next results
Compound	AmpC inh no det
COc1ccc2nc3c(cc2c1)Cc1ccccc1-3	?
O=C(CSc1nc2c(c(=O)n1-c1ccc(Cl)cc1)SCC2)N1CCOCC1	36%
COc1ccc(C2NC(C(=O)O)CS2)cc1COCC(F)(F)F (stereo unspecified)	-8%
CC1(C)CC(=O)C=C(Nc2ccc(F)cc2)C1	-9%
Cn1cc(C(=O)OCC2CCN(CCNS(C)(=O)=O)CC2)c2ccccc21	60%&17%
Cn1c(CCNC(=O)c2ccco2)nc2cc(NC(=O)NC3CCCCC3)ccc21	18%
COCCOC(=O)c1c(C)oc2ccc(NS(=O)(=O)c3ccccc3)cc12	15%
COc1ccc(-n2c(=O)c(-c3cc(F)cc(F)c3)nc3cnc(N4CCNCC4)nc32)cc1	67%
Cc1ccccc1Nc1nnc(SCC(=O)NCc2ccco2)s1	-15%
CC(=O)C(Sc1nc(-c2ccc(F)cc2)nc2c1c(=O)n(C)c(=O)n2C)C(C)=O	8%
CCOc1ccc(N(CC(=O)Nc2cccc(Cl)c2)S(=O)(=O)c2c(C)noc2C)cc1	-18%
CCc1nc(-c2ccccc2O)n(-c2ccccc2)n1	11%
CN(C)CCCCN1CCc2c(n(C)c3ccccc23)C1=O	17%[5.75 µM]
CCOC(=O)CNS(=O)(=O)c1ccc(S(=O)(=O)N2CCCC2)cc1	5%
CCN(CC)C(=O)CSc1nnc(-c2cnccn2)n1-c1ccccc1	17%
Cc1cc(C)n2cc(CSc3nnnn3-c3ccccc3)nc2n1	-4%
Clc1ccc(CO[C@@H](Cn2ccnc2)c2ccc(Cl)cc2Cl)cc1	36%[12.8 µM]
COC(=O)/C=C\C(=O)N[C@@H]1CC[C@@]2(O)[C@H]3Cc4ccc(O)c5c4[C@@]2(CCN3CC2CC2)[C@@H]1O5	3%
CNc1nc(-c2ccccc2C)nc2ccccc12	-6%
COc1ccc(CNC(=O)Nc2ccc(C)cc2)cc1	-5%
Cn1c(SCC(=O)Nc2cc(=O)n(C)c(=O)n2C)nnc1C12CC3CC(CC(C3)C1)C2	-3%
COc1cc(OC)cc(C(C(=O)NCc2ccccc2)N(Cc2ccco2)C(=O)c2ccno2)c1 (stereo unspecified)	56%
COc1ccccc1C1C(C(=O)c2cc3ccccc3o2)=C(O)C(=O)N1CCN1CCOCC1 (stereo unspecified)	0%
N#Cc1c2n(c(=S)n(-c3ccccn3)c1=O)CCCCC2	3%
CCSc1nnc(NC(=O)C(Cc2ccccc2)n2cccc2)s1 (stereo unspecified)	-18%
C/C(=N\[N+](C)(C)C)c1ccc(C)c(C)c1	9%[5.75 µM]
Cc1cn(C(=O)CN2C(=O)c3ccccc3C2=O)c(C)n1	5%
Cc1cc(-c2cccs2)c2c(n1)sc1c(=O)[nH]c(=O)[nH]c12	-11%
O=C(Nc1cccc(F)c1)N1CCC2(CC1)CCN(C(=O)c1csnn1)CC2	29%
CC1CCc2nn(CC(=O)NCCCN3CCCC3=O)cc2C1 (stereo unspecified)	-9%
Cc1occc1-c1nnc(SCc2nnc(-c3ccc(Cl)cc3)o2)n1C	32%
CCn1c(SCC(=O)c2cccs2)nnc1-c1cccs1	-8%
Cc1c(Br)cc(C(=O)O)c(C)c1C	-9%
COc1ccc(C(=O)COC(=O)CN2C(=O)C3C4C=CC(C4)C3C2=O)cc1 (stereo unspecified)	23%
CCc1ccc(Cn2nnc(C(=O)Nc3cccc(C)c3)c2N)cc1	4µM*[single pt active]
CN(C)c1ccc(-c2nn3c(-c4ccncc4)nnc3s2)cc1	81%
Cc1ccc(-c2csc3nnc(SCC(=O)NCc4ccco4)n23)cc1	-1%
O=C(Nc1nc2ccccc2[nH]1)c1ccccc1F	-10%
Cc1nc2ccccc2n1CC(=O)NCCN1CCCC1	4%
Cc1nc2ncnn2c(C)c1CCC(=O)NCc1ccco1	-7%
CCOC(=O)NC(c1ccccc1)C1CCCCC1=O (stereo unspecified)	-14%
O=c1c2c3c(sc2nc2sc(CN4CCOCC4)cn12)CCCC3	63%
CCOC(=O)c1oc2c(CN3CCN(C)CC3)c(O)ccc2c(=O)c1-c1ccccc1OC	22%
O=C1c2ccccc2C(=O)c2c(Nc3cc4c5c(ccc6c7ccc8c9c(cc(Nc%10cccc%11c%10C(=O)c%10ccccc%10C%11=O)c(c3c56)c97)-c3ccccc3C8=O)C(=O)c3ccccc3-4)cccc21	-9%[5.75 µM]
Cc1cc(NC(=O)C(C)C)ncc1NC(=O)c1cccc(F)c1	-16%
COc1ccc(C(=O)Oc2ccc(/C=N/O)cc2)cc1	4%
Cc1ccc(C)c2[nH]c(=O)c(CCNC(=O)c3ccc(Br)o3)cc12	36%
COc1ccccc1-c1nn2c(C3COc4ccccc4O3)nnc2s1 (stereo unspecified)	85%
COc1ccc(N2CCN(Cc3cc(=O)oc4cc(C)c(Cl)cc34)CC2)cc1	31%
Cc1nc(N2CCc3ccccc32)[nH]c(=O)c1CCC(C)C	-5%
COc1ccc(OC)c(C2N(c3cc(C)on3)C(=O)C3CCCN32)c1 (stereo unspecified)	3%
CCOc1cc2[nH]c(=O)n(Cc3ccc(C(=O)NCCOC)cc3)c(=O)c2cc1OCC	142%
COc1cc(OC)cc(-c2nc(-c3cc4cc(C)ccc4nc3OC)no2)c1	55%
CCn1c2ccccc2c2nnc(SCC(=O)NCCOC)nc21	8%
COc1ccccc1C(=O)NC(CCSC)C(=O)NCC(c1ccco1)N(C)C (stereo unspecified)	33%
CC(=O)Oc1cccc(N2C(=O)C3C4C=CC(C4=C(C)C)C3C2=O)c1 (stereo unspecified)	23%
CCN(CC)S(=O)(=O)c1ccc(Oc2cccc(C(C)=O)c2)nc1	21%
Nc1c(C(=O)OC2CCCCC2)c2nc3ccccc3nc2n1CC1CCCO1 (stereo unspecified)	81%
CCn1c(=O)cc(OCC(=O)Nc2ccc(C)cn2)c2ccccc21	45%
O=C(c1csnn1)N1CCC[C@@]2(CCN(c3ccncc3)C2)C1	19%

The list goes on:
Compound	AmpC inh no det
S=c1c2[nH]cnc2ncn1CCSc1ncnc2nc[nH]c12	3%[5.75 µM]
O=c1cnc2ccccc2n1CC1CCCCC1	-8%
COc1ccc(C2CC(c3ccc(Cl)cc3Cl)Nc3nc(N)nn32)cc1OC (stereo unspecified)	133%
CC(=O)c1c(C)[nH]c(C(=O)CSc2nc3ccccc3c(=O)n2CCCN2CCOCC2)c1C	126%
O=C(C1CCCN(S(=O)(=O)c2cccc3cccnc23)C1)N1CCc2ccccc21 (stereo unspecified)	61%
Cc1ccc2c(n1)sc1c(N)ncnc12	-4%
CN(C)C(=O)c1ccc(-c2ccc3ncnc(NC4CC4)c3c2)cc1	-11%
O=C(CCCc1c[nH]c2ccccc12)N1CCOCC1	12%
COc1ccc(Nc2cc(=O)n(C3CCCCC3)c(=O)[nH]2)c(OC)c1	-17%
Cc1ccc(S(=O)(=O)N2C(=O)CCC2C(=O)NCc2ccco2)cc1 (stereo unspecified)	-3%
COc1ccc2[nH]c(=O)c(-c3noc(-c4ccc(F)cc4)n3)cc2c1	8%
N=C1C(c2nc(-c3ccc(Cl)cc3)cs2)=C(O)CN1CCCN1CCOCC1	125%

Later entries.
| SMILES | AmpC inh no det |
| --- | --- |
| CCN(CC)CCOC(=O)C12CC3CC(CC(C3)C1)C2 | 7% |
| Cc1ccccc1C(=O)Nc1ccc(Cl)cn1 | 4% |
| Cc1ccc(-c2nnn(CCC(=O)Nc3ccc4c(c3)OCO4)n2)cc1 | -9% |
| CCn1c(SCC(=O)NCc2ccco2)nnc1-c1cccs1 | -5% |
| CC(C)(C)[Si](OCC[C@@H]1C[C@@]1(C)[C@@H](NP(=O)(c1ccccc1)c1ccccc1)c1ccccc1)(c1ccccc1)c1ccccc1 | 20% |
| O=C(C1CC(c2ccc(Cl)c(Cl)c2)=NO1)N1CCC2(CC1)OCCO2 (stereo unspecified) | 92% |
| CCCC(=O)Nc1ccccc1N1CCN(C(=O)c2ccccc2)CC1 | 43% |
| COc1ccc2[nH]c(=O)c(CN(C(=O)COc3ccccc3)C(C)C)cc2c1 | 40% |
| O=C(Oc1ccccc1)N1CCC2(CC1)CN(Cc1ccncc1)C2 | 57% |
| C(#Cc1ccccc1)CN1CCN(c2ccccn2)CC1 | 48% |
| Cc1ccnc(NS(=O)(=O)c2ccc(NC(=O)Cc3cccs3)cc2)n1 | -14% |
| CN(C(=O)c1ccccn1)c1nnc(-c2ccncc2)s1 | 0% |
| Cc1nc(NCC2CCCO2)c2nnn(Cc3ccccc3)c2n1 (stereo unspecified) | 26% |
| CN(C)c1nc(SCCOC(=O)Nc2ccccc2)nc(N(C)C)n1 | 47% |
| O=C(NCc1cccs1)c1csc2c1CCCCC2 | -13% |
| CCCn1c(SCC(=O)Nc2nnc(C)s2)nnc1-c1ccoc1C | 22% |
| O=C1CNC(=O)N1Cc1ccc(Br)cc1 | -5% |
| O=C(c1ccc(CN2CCOCC2)cc1)N1CCC(Cc2ccccc2)CC1 | 109% |
| Cc1nn(-c2ccccc2)c(N2CCCCC2)c1/C=N/O | -6% |
| S=c1nc(C2CC2)[nH]c2ccccc12 | 81% |
| CC(C)NC(=O)NC(=O)COc1cccc2c1OC(C)(C)C2 | 16% |
| CCCC(=O)NCCc1nc2ccccc2n1CCC | 24% |
| Cc1cc(NC(=O)CCCC(=O)O)nc(C)n1 | -4% |
| CCOC(=O)C(CO)(NC(C)=O)C(=O)OCC | -5% |
| NC(=O)CSc1oc(-c2cccs2)nc1S(=O)(=O)c1ccccc1 | -19% |
| c1cn(CCCNC2=NCCCCC2)cn1 | -14% |
| FC(F)(F)c1ccccc1-c1cc(NCc2cccs2)ncn1 | 5% |
| Cc1ccc2[nH]c(=O)c(CN(Cc3nnnn3Cc3ccccc3)C3CCCC3)cc2c1 | 23% |
| c1ccc(CSc2nnc(NC3=NCCCCC3)s2)cc1 | 29% |
| Cc1c(C(=O)OC(C)CCN(C)C)oc2ccccc12 (stereo unspecified) | 14% |
| Oc1ccc2c3c1O[C@H]1c4c(c5ccccc5n4Cc4ccccc4)C[C@]4(O)[C@H](C2)N(CC2CC2)CC[C@@]314 | 35% |
| O=C(Nc1ccc(F)cc1)c1cccc2c1C(=O)N(Cc1ccccn1)C2 | 70% |
| O=S(=O)(N1CCCCC1)N1CCCN(S(=O)(=O)N2CCCCC2)CC1 | 0% |
| COc1cccc(C(=O)Cn2c(=O)n(CC3CCCO3)c(=O)c3ccccc32)c1 (stereo unspecified) | 50% |
| CCCN1C2CCCC1CC(NC(=O)c1ccc(F)cc1)C2 (stereo unspecified) | -8% |
| Cc1cc(C(=O)Nc2c(C)nn(Cc3ccccc3Cl)c2C)no1 | 17% |
| COc1ccc(Cl)cc1C(=O)Nc1nnn(C)n1 | -14% |
| CN1CCN(CCCBr)CC1 | -8%[5.75 µM] |
| CC(NC(=O)c1ccc(Cl)cc1)C(=O)N1CCCCC1 (stereo unspecified) | 7% |
| Cc1cc(Br)ccc1NC(=O)C1CCCO1 (stereo unspecified) | -2% |
| O=C(c1cc(-c2ccccc2O)on1)N1CCc2ccccc2C1 | -16% |
| CCN(C(=O)c1c(-c2ccccc2)noc1C)c1ccccc1 | 35% |
| CCOC(=O)N1CCN(C(=O)CSc2cc(C)nc3c(-c4ccccc4OC)c(C)nn23)CC1 | 122% |
| COC(=O)c1ccc(C2CC(=O)Nc3cc(OC)c(OC)c(OC)c32)cc1 (stereo unspecified) | 29% |
| O=C(NCc1ccc(F)cc1)c1cccc(S(=O)(=O)N2CCCC2)c1 | 4% |
| N=C1C(c2ccccc2)=C(O)CN1c1ccccc1N1CCOCC1 | -13% |

Part of the list above, with each value named:
> O=C(Nc1ccc(F)cc1)c1cccc2c1C(=O)N(Cc1ccccn1)C2
  AmpC inh no det: 70%

> N=C1C(c2ccccc2)=C(O)CN1c1ccccc1N1CCOCC1
  AmpC inh no det: -13%

> CN1CCN(CCCBr)CC1
  AmpC inh no det: -8%[5.75 µM]

> c1ccc(CSc2nnc(NC3=NCCCCC3)s2)cc1
  AmpC inh no det: 29%

Screening data (PubChem BioAssay)

This is a subset; count on the stated rates, not on these rows.
